Assay outcomes as filed in PubChem.
GIV Gai3 FP – inhibitors of GIV peptide binding to Galpha-i3, primary screen, biochemical, fluorescence polarization, FITC-GIV GBA peptide, rat Galphai3. percent of control (FP), % (test concentration not listed). Guanine nucleotide-binding protein G(i) subunit alpha-3 (Rattus norvegicus), P08753. AID 1224905, 2016. 210,000 tested, 0.42% active. 90 min; active compounds read low; scaled: aluminum fluoride 0%, vehicle 100%;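 active means replicate mean at 85% of control or lower, very high polarization wells dropped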;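 further: lower values mean more displacement of the GIV peptide from Galpha-i3; wells of about 15 µL received 100 nL stock; the first replicate is given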
Target sequence (P08753 whole entry, looked up): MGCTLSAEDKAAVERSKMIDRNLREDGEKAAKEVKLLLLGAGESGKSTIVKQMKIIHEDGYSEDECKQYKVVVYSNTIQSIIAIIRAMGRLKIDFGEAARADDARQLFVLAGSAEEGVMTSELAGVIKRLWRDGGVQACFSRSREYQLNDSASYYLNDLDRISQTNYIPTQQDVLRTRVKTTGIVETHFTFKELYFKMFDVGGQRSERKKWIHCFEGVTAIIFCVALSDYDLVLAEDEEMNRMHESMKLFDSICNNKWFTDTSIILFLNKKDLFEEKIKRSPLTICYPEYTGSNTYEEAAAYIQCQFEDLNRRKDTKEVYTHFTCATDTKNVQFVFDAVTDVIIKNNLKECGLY
Sa growth 42C – S. aureus growth inhibition at 42 and 30 °C, primary screen, LtaS inhibitor project, RN4220, two temperatures; OD600, 20 h, 42 °C; active compounds read low; relative growth, % (concentration not given with the values); 170,000 tested, 0.53% active;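 active means growth at 42 °C up to 50% and 20 or more points under that at 30 °C, or under 10% at both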;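 further: 300 nL library stock went into each well; scaled to the means of positive and negative controls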
HCMV UL50-53 inh – inhibitors of HCMV UL50-UL53 interaction, biochemical, HTRF; HCMV UL50-UL53 nuclear egress complex (human cytomegalovirus); normalized percent inhibition; 190,000 tested, 0.15% active; AID 1918969, 2023; inhibition, % (no concentration beside the values);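 active means both replicates at 50% or more, plus weaker picks with an unusually low signal ratio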;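 further: stock transfer was 100 nL into about 20 µL; 0% = negative control wells and 100% = wells with untagged competitor protein; inactives centre near -12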
Sa growth 42C second temp – recorded beside Sa growth 42C, whose call it bears; relative growth, %; measured here: growth at 30 °C;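 optical density after 20 h as mean of two plates; 100% = untreated growth and lower means inhibition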
* hit, by the source's call; . = no result given; & = joins results of further samples.

SMILES	GIV Gai3 FP	Sa growth 42C	Sa growth 42C second temp	HCMV UL50-53 inh
CCC(Sc1ncnc2sc3c(c12)CCCC3)C(=O)OCC(C)C (stereo not given)	107	98	83	-34
O=C1CNCCN1C1CCCCC1	105	102	88	2
CC1Oc2cc(S(=O)(=O)N3CCN(C(=O)c4cc5ccccc5[nH]4)CC3)c(Cl)cc2NC1=O (stereo not given)	107	.	.	-36
O=C(CN1CCN(Cc2ccccc2Cl)C1=O)NCCc1ccc(Cl)cc1	101	107	76	-11
CCCc1cc(=O)oc2c(C)c3oc(C)c(C)c3cc12	110	82	88	.
COCCCNC(=O)CCc1c(C)nc2nc(-c3cc(OC)cc(OC)c3)nn2c1C	101	83	93	-20
O=c1c2c3c(sc2[nH]c(=S)n1C1CCCCC1)CCC3	118	.	.	-5
Cc1nc2c(-c3ccccc3)c(C)nn2c(C)c1CCC(=O)NCc1ccccc1Cl	101	93	82	-9
CCCCSc1nnc2n(-c3ccc(OC)cc3)c(=O)c3c4c(sc3n12)COC(C(C)C)C4 (stereo not given)	100	104	89	-30
O=C(CSc1ssc(=S)c1-c1ccccc1)c1ccccc1	100	97	88	-8
CN1CCN(c2ccc(NS(=O)(=O)c3cccc4nonc34)cc2)CC1	101	104	88	-94
Cc1cc(-c2ccc(S(=O)(=O)NC3CCCc4ccccc43)s2)n[nH]1 (stereo not given)	109	.	.	11
Cc1ccc(N2CC(C(=O)Nc3ccccc3-c3nc(C)no3)CC2=O)cc1 (stereo not given)	106	.	.	-29
COc1ccccc1CNC(=O)c1ccc(-c2nc(CS(=O)c3ccccc3)c(C)o2)cc1 (stereo not given)	107	153	89	.
Cc1c(Cl)cccc1NC(=O)C(C)n1c(=O)cc(C)c2c(C)nn(-c3ccccc3)c21 (stereo not given)	100	85	89	.
O=C(/C=C1\SC(=O)NC1=O)Nc1ccc(F)cc1	101	90	70	-39
O=C(CCn1ccnc1)OCc1ccccc1	.	106	100	4
O=C(CSc1ncnc2nc(N3CCc4ccccc4C3)sc12)N1CCc2ccccc2C1	107	.	.	4
FC(F)(F)c1cc(Cl)c2nnc(C(F)(F)Cl)n2c1	103	.	.	-17
O=C(NC1CCCCC1)C1CCN(c2nc3ccccc3nc2C(F)(F)F)CC1	103	.	.	-4
CCOC(=O)c1c(C)[nH]c(C)c1S(=O)(=O)N1CCN(c2cccc(C(F)(F)F)c2)CC1	97	114	99	.
Cc1nc2c(C(=O)NCCc3ccc(Cl)cc3)c[nH]n2c(=O)c1Cc1ccccc1F	106	1.1*	1.8*	-33
Cn1c(=O)c2sccc2n2c(CCCC(=O)NC3CCCCC3)nnc12	94	91	84	.
COc1cccc(-n2c(=O)c3sc4ccccc4c3n(CC(=O)Nc3ccccc3C)c2=O)c1	100	110	94	-21
Cc1nc(-c2ccc(Cl)cc2)sc1CCNS(=O)(=O)CCc1ccccc1	104	.	.	-16
COc1ccc(OC)c2sc(NC(=O)/C=C/c3cccs3)nc12	105	108	78	-11
O=C(OCC1CCCO1)c1ccc2c(c1)N(Cc1cccc(Cl)c1)C(=O)c1ccccc1S2 (stereo not given)	104	.	.	-10
COc1ccccc1N1CCN(C(=O)CSc2nc(-c3ccc(C(C)C)cc3)no2)CC1	112	72	69	.
COc1ccc(-n2c(C)cc(CNC(=O)Nc3cccc(F)c3)c2C)cc1	129	.	.	0
Cc1ccc(C(=O)Oc2c(C)cc(-c3nn(C)c(=O)c4ccccc34)cc2C)cc1	105	73	90	-21
CCOc1ccc(NS(=O)(=O)c2ccc3[nH]cc(C(=O)N4CCCCCC4)c(=O)c3c2)cc1	104	93	85	8
CN(C)CCNc1cn[nH]c(=O)c1Cl	.	93	97	-18
O=C(Nc1ccccc1)c1nnc(COCC(=O)N2CCN(c3ccccn3)CC2)s1	101	.	.	-45
CCCN1CSC(=S)N(CCC)C1	108	53	32	-28
COc1cccc(-c2nc(SCc3cccc(Br)c3)n3[nH]c(=O)cc3n2)c1	99	83	94	.
Cc1n[nH]c(C)c1C(C)C(=O)Nc1ccc(CN2CCOCC2)cc1 (stereo not given)	105	93	86	-31
CCOC(=O)c1c(C)[nH]c(C)c1S(=O)(=O)N1CCCC(C(=O)Nc2cccc(CC)c2)C1 (stereo not given)	107	100	75	.
COc1ccc(C(=O)c2c(/C=C/N(C)C)oc3ccc(OC)cc23)cc1	136	76	39	-2
CCc1n[nH]c(=S)n1/N=C1\C(=O)N(C)c2ccccc21	.	71	54	-54
CN(C(=O)Cn1c(=O)n(CCCS(=O)(=O)C2CCCCC2)c(=O)c2ccccc21)c1ccccc1	103	107	91	-12
COc1cc(OC)c(N(C)C(=O)c2sc3nc4n(c(=O)c3c2C)CCCCC4)cc1Cl	95	87	88	-13
CCOC(=O)c1cc(C(=O)OCC)c(C(F)(F)F)nc1/C=C/N(C)C	98	77	85	-18
CCOC(=O)c1cnn2c(C)cc(-c3ccc(F)cc3)nc12	102	83	66	-40
COC(=O)c1cccc(NC(C)=O)c1	99	98	86	-12
COc1ccc(OCC(=O)N(C)CCc2noc(COc3ccc(OC)cc3)n2)cc1	104	.	.	7
COc1ccc(NC(=O)COc2ccc(-c3nn(C)c(=O)c4ccccc34)cc2)cc1	98	99	93	-24
Cc1cccc(C(=O)Nc2cnc3cc(C)ccn3c2=O)c1	105	.	.	-67
C=CCn1c(=O)c(C(=O)Nc2ccccc2Cl)c(O)c2ccccc21	105	.	.	-23
COc1ccc(NS(=O)(=O)c2coc(C(N)=O)c2)cc1	111	85	91	-21
CCN1C(=O)C(=Cc2cccn2-c2ccc(N(C)C)cc2)C(=O)N(CC)C1=S	105	119	99	-18
CCCCc1c(C)nc(N)[nH]c1=O	109	111	98	4
O=c1n(CCCN2CCN(c3cccc(Cl)c3)CC2)nc2ccccn12	99	94&93	81&88	-52&-127&-34&-174
CN(C)c1ccc(NC(=O)/C=C/c2ccccc2)cc1	99	124	103	-18
Cc1cccn2c(=O)c3cc(C(=O)NCC4CCCO4)c(=N)n(C4CCCCC4)c3nc12 (stereo not given)	105	114	84	.
Cn1cc(C(=O)Nc2ccc(Br)cc2)c2[nH]c(=O)n(-c3ccc(Cl)cc3)c(=O)c21	100	.	.	-28
COCCCNC(=O)NC(CCC(C)C)c1c(-n2cccc2)sc2c1CCN(C)C2 (stereo not given)	118	122	87	.
O=S(=O)(Nc1cccc(-c2ccc(N3CCOCC3)nn2)c1)c1ccc(F)cc1F	102&100	115	103	-6
COc1cccc(NC(=O)c2cn(C3CCCC3)c(=O)c3c2c2ccccc2n3C)c1	100	95	81	.
CCN1CCN(C(=O)c2ccc(NC(C)=O)cc2)CC1	.	100	82	-17
COc1ccc(C2=NC3(CCCCC3)N(CC(=O)Nc3ccc(C(C)C)cc3)C2=O)cc1	104	97	87	-12

(further entries)
SMILES	GIV Gai3 FP	Sa growth 42C	Sa growth 42C second temp	HCMV UL50-53 inh
COc1ccccc1NC(=O)c1cc(S(=O)(=O)NCCc2ccccc2)ccc1F	107	94	95	.
O=C(Nc1ccc(F)cc1)c1c(O)c2ccccc2[nH]c1=O	103	.	.	-34
COC(=O)CSCc1n[nH]c(=O)c2ccccc12	102	120	85	-30
CCCCN1C(=O)/C(=C\C(=O)NC(N)=O)c2ccccc21	.	94	92	-30
CCN(Cc1ccc(OC)cc1)S(=O)(=O)c1ccc(OC)c(-c2noc(C)n2)c1	109	.	.	-29
Cc1c(N=C2c3ccccc3-c3ccccc32)c(=O)n(-c2ccccc2)n1C	.	100	87	-46
CCN(CC)S(=O)(=O)c1ccc(C(=O)Nc2c3c(nn2-c2ccc(C)cc2)CSC3)cc1	99	.	.	-20
CC(=O)Nc1ccc(C(=O)c2ccccc2)cc1	98	114	94	-48
COc1cc(C2Oc3nc(SC)nnc3-c3ccccc3N2C(C)=O)cc(Cl)c1OC (stereo not given)	102	90	90	-52
Cc1ccc(OC(=O)c2sc3nc(C(F)(F)F)nn3c2C)cc1	100	109	75	3
NC(=O)c1ccc2c(c1)C1C3CCC(C3)C1C(c1ccccc1)N2 (stereo not given)	108	50	67	-5
O=C(NC1CCCCC1)C1CCCN(c2ccnc(-c3ccc(F)cc3)n2)C1 (stereo not given)	109	.	.	-27
Cc1cc(C(F)(F)F)c2c(=O)n3[nH]c(C)cc3nc2n1	.	94	95	-7
O=C(O)c1ccccc1C(=O)OCc1ccc(F)cc1F	103	115	109	-14
CCc1cc(=O)oc2cc(O)ccc12	.	97	91	-4
Cc1cc(=O)oc2cc(OCC(=O)N3CCCC3C(=O)O)ccc12 (stereo not given)	.	96	96	-11
O=C(NCC1CCCO1)c1cccc(C(=O)NCC2CCCO2)c1 (stereo not given)	103	99	86	-20
Cn1cc(CN(C(=O)Nc2ccc(Cl)c(Cl)c2)C2CCCCC2)c2ccccc21	109	85	75	2
CNC(=O)COc1ccccc1C(=O)Nc1ccccc1	.	87	92	6
CC1(C)Cc2ccccc2-c2nnc(SCC(N)=O)n21	103	117	65	-2
FC(F)(F)c1ccc(-c2noc(CSc3ccc(-c4ccc5c(c4)OCO5)nn3)n2)cc1	111	.	.	6
O=C(NCCC1=CCCCC1)c1ccc2c(=O)n3nc(Nc4ccccc4)sc3nc2c1	105	92	85	.
Cn1c(=O)n(C)c2cc(S(=O)(=O)c3ccc4c(c3)n(C)c(=O)n4C)ccc21	100	.	.	-14
Cc1cc(C)c2c(=O)cc(C(=O)Nc3ccc(S(=O)(=O)N(C)Cc4ccccc4)cc3)oc2c1	103	93	84	-26
CCOc1ccccc1CN(CCc1ccc2c(c1)OCO2)Cc1cc(OC)c(OC)cc1OC	99	102	85	10
CC(=O)NNc1nc(Cl)nc(N(C)C)n1	103	99	87	-21
CC(=O)Nc1n[nH]c(-c2ccc(C)cc2)n1	103	100	74	-14
CCOCCCN1C(=O)c2cc(C(=O)OCC)nn2CC1(C)C(=O)NC1CCCCC1 (stereo not given)	100	.	.	3
Cc1cc(N2CCN(c3ccc(F)cc3)CC2)n2nc(-c3ccc(Cl)cc3)nc2n1	105	97	84	-21
O=C(CCc1nnc2c3cc(-c4ccccc4)nn3ccn12)NCc1ccncc1	108	.	.	-28
C#CCn1cnc2c(cnn2-c2ccc(C)c(C)c2)c1=O	95	.	.	-18
O=c1c2sc3ccccc3c2n(Cc2ccc(F)cc2)c(=O)n1Cc1ccccc1	102	93	100	16
O=C(Nc1ccccc1)N1CCn2c(nc3ccccc32)C1	96&99	84	81	-33
CC(C)NS(=O)(=O)c1ccc(OCC(=O)O)c(Cl)c1	99	91	102	3
Clc1ccc(OCCSc2ncnc3ccccc23)cc1	.	103	90	-2
N#Cc1cc(C#N)c(SCC(=O)NC2CCCCC2)nc1N	.	89	88	23
CCOC(=O)c1cccc(NC2c3ncccc3C(=O)N2c2ccc(C)cc2)c1 (stereo not given)	102	103	77	-12
S=C1NCN(Cc2cccs2)CN1	102	45	26	8
Nc1nc(-c2ccc3c(c2)OCCO3)cs1	.	81	82	-2&-12
Cn1nnnc1SCCNCc1ccc(OCc2ccccc2)cc1	102	113	93	-6
NCCCn1c2c(c3ccccc31)CCCC2	.	107	109	6
CSc1nnc(CCCc2nnc(SC)o2)o1	103	111	91	-4
C=CCn1cc(/C=C(/C#N)C(=O)OCC)c2ccccc21	102	113	108	18
CCOC(=O)c1c(C)oc2c1c(C(c1cccnc1)N1CCOCC1)c(O)c1ccccc12 (stereo not given)	93	90	84	-5
COc1ccc(S(=O)(=O)NCCc2sc3nc(-c4ccc(C)cc4)nn3c2C)cc1C	98	117	99	.
Cc1ccc(CCNC(=O)c2nnc(Cc3cccc(F)c3)o2)cc1	102	119	90	-13
O=C(CSc1c2c(nc3ccc(Cl)cc13)CCCC2)NCc1ccccc1Cl	111	.	.	-15
O=C(O)Cn1ccc(C(F)(F)F)n1	.	100	93	-21
COc1ccc(-c2noc(CNC(=O)C3CCCCC3)n2)cc1	99	91	78	-10
COc1ccccc1N1CCN(Cc2nnc(-c3ccccc3C)o2)CC1	105	105	94	-7

3 compounds from above, ordered by the value under GIV Gai3 FP, high to low:
Molecule	GIV Gai3 FP	Sa growth 42C second temp
CSc1nnc(CCCc2nnc(SC)o2)o1	103	91
C=CCn1cc(/C=C(/C#N)C(=O)OCC)c2ccccc21	102	108
COc1ccc(S(=O)(=O)NCCc2sc3nc(-c4ccc(C)cc4)nn3c2C)cc1C	98	99

An excerpt from above in order of molar mass, smallest number first:
SMILES	GIV Gai3 FP	Sa growth 42C	Sa growth 42C second temp	HCMV UL50-53 inh
COC(=O)CSCc1n[nH]c(=O)c2ccccc12	102	120	85	-30
O=c1c2c3c(sc2[nH]c(=S)n1C1CCCCC1)CCC3	118	.	.	-5
O=C(NCC1CCCO1)c1cccc(C(=O)NCC2CCCO2)c1 (stereo not given)	103	99	86	-20
Cc1n[nH]c(C)c1C(C)C(=O)Nc1ccc(CN2CCOCC2)cc1 (stereo not given)	105	93	86	-31
Cn1c(=O)c2sccc2n2c(CCCC(=O)NC3CCCCC3)nnc12	94	91	84	.
Cc1cc(-c2ccc(S(=O)(=O)NC3CCCc4ccccc43)s2)n[nH]1 (stereo not given)	109	.	.	11
CCOc1ccccc1CN(CCc1ccc2c(c1)OCO2)Cc1cc(OC)c(OC)cc1OC	99	102	85	10
